Bioassay records (PubChem BioAssay)
Kir21 inh – blocks the mouse Kir2.1 inward-rectifier potassium channel. B-score at 10 µM. 0.85% of 310,000 active. HEK293-Kir2.1, FluxOR thallium flux fluorescence; stronger effect = lower value. AID 1672;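 active = fluorescence ratio B-score at or below minus 3 SD of library scores, with starting-brightness B-score within 2 SD, cut at about -4.2 in these data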;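 note: channel flux triggered by added potassium and thallium sulfate stimulus; B-score of peak minus minimum fluorescence over baseline after thallium stimulus; more negative B-score means stronger Kir2.1 block with less thallium influx; some compounds called inactive have numbers as strong as hits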
Target sequence (P35561 whole entry, looked up): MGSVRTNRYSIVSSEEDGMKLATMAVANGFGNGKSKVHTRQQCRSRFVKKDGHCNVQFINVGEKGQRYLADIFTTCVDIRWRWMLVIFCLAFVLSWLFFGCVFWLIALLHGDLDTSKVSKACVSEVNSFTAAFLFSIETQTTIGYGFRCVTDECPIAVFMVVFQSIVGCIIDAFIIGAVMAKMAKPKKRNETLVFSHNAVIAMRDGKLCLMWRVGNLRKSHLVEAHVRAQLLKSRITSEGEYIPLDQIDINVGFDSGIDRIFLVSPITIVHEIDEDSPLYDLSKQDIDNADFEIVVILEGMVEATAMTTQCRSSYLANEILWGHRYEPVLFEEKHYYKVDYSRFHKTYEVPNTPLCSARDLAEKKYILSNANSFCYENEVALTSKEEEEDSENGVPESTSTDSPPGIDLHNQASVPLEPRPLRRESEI
Numbers without * were called inactive. The list is partial, and most or all hits are left out here.

SMILES,Kir21 inh
O=C(CSc1ccc(Br)cc1)NC1CCS(=O)(=O)C1 (centres undefined),-0.03
O=C1OC(c2ccccc2)=N/C1=C\C=C\c1ccccc1[N+](=O)[O-],-2.01
O=C(Nc1ccc(F)cc1)c1nsc(Cl)c1Cl,1
COc1ccc(CN2CCC(C(=O)N3CCCC(C)C3)CC2)cc1OC (centres undefined),-0.31
C[C@H](NCc1c[nH]c2ccccc12)c1ccccc1,-2.42
COc1ccccc1NC(=O)Cc1nnc(SCC(=O)c2ccc(F)cc2)n1C,-0.88
COc1ccccc1N(CC(=O)NCc1ccco1)S(=O)(=O)c1ccc(C)cc1,1.46
Cc1ccc2cc3c(NC(=O)CC(C)C)nn(C)c3nc2c1,0.53

Reformatted with each value named: entries from further up.
> O=C(CSc1ccc(Br)cc1)NC1CCS(=O)(=O)C1 (centres undefined)
  Kir21 inh: -0.03
> O=C1OC(c2ccccc2)=N/C1=C\C=C\c1ccccc1[N+](=O)[O-]
  Kir21 inh: -2.01
> O=C(Nc1ccc(F)cc1)c1nsc(Cl)c1Cl
  Kir21 inh: 1
> COc1ccc(CN2CCC(C(=O)N3CCCC(C)C3)CC2)cc1OC (centres undefined)
  Kir21 inh: -0.31

The list continues:
SMILES,Kir21 inh
COCCn1c(SCC(=O)Nc2ccccc2F)nc2c(c1=O)SCC2,0.8
COc1ccc(C2C(C(C)=O)=C(O)C(=O)N2CCO)c(OC)c1 (centres undefined),0.28
CCCn1cc(SCC(=O)NCC2CCCO2)c2ccccc21 (centres undefined),-1.98
COC(=O)c1ccc(NC(=O)CSc2nnc(Cc3cccn3C)n2-c2ccc(F)cc2)cc1,-0.48
CCN(C(=O)CN1CCN(c2cccc(Cl)c2)CC1)c1c(N)n(Cc2ccccc2)c(=O)[nH]c1=O,-0.02
O=C(NC1CCCC1)c1ccc(CSc2nc3ccncc3n2Cc2ccc(F)cc2)cc1,0.9
CCc1cccc2c(C(=O)C(NCCCOC)c3ccccc3)c[nH]c12 (centres undefined),-0.37
CC(N)C12CC3CC(C1)CC(C(C)N)(C3)C2 (centres undefined),0.21

Additional structures:
SMILES,Kir21 inh
CCc1ccc(Nc2ccc3nonc3c2[N+](=O)[O-])cc1,-0.1
CC(=O)NC(C)C12CC3CC(CC(C(=O)O)(C3)C1)C2 (centres undefined),-0.13
Cc1cc(N2CCN(c3ccccc3)CC2)nc(NCc2ccccc2)n1,1.76
O=C(O)Cc1ccccc1C(=O)O,0.29
Cc1cc(C)c2c(CN3CCN(C/C=C/c4ccccc4)CC3)cc(=O)oc2c1,1.57
O=C(NCC1CCCO1)c1nn2c(C(F)(F)F)cc(-c3ccco3)nc2c1Cl (centres undefined),-0.01
Cc1ccc(Oc2cc(-n3nc(C)cc3C)ncn2)cc1,-1.52
COc1ccc(NC(=O)CSc2nncc(=O)n2N)cc1OC,0.54

(more compounds)
SMILES,Kir21 inh
Cc1cccc(-n2cc(-c3ccccc3)c3c(N4CCOCC4)ncnc32)c1,-0.02
Cc1ccccc1CN1C(=O)Nc2ccccc2C(=O)N1C(C)(C)C,0.63
Cc1cc(=O)oc2cc(OC(C)C(=O)NCC3CCC(C(=O)O)CC3)ccc12 (centres undefined),-0.2
O=C(Nc1cc(S(=O)(=O)N2CCOCC2)ccc1N1CCCCC1)c1cc(-c2ccccn2)nc2ccccc12,0.37
COc1cccc(CN(C)C(=O)CSC(C)C(=O)Nc2cc(C)on2)c1OC (centres undefined),0.03
Cc1ccc(NC(=O)Cn2cnc3cc([N+](=O)[O-])ccc3c2=O)c(Cl)c1,-2.08
Cc1cccc(C(=O)OCC(=O)N2CCC(c3ccccc3)=N2)c1O,1.94
O=C(NCCc1ccccc1)c1ccccc1NC(=O)C1CC=CCC1C(=O)O (centres undefined),-0.78

Other compounds
SMILES,Kir21 inh
CC1CCc2sc3nc(NCc4ccco4)n4ncnc4c3c2C1 (centres undefined),-0.02
CCCN1CNC(=S)N(c2ccc(C(=O)OCC)cc2)C1,1.06
COc1ccc(C(=O)Nn2c(C)nc3ccccc3c2=O)cc1Br,-0.51
O=C(NCCN1C(=O)S/C(=C\c2ccc(Cl)c(Cl)c2)C1=O)c1ccc2c(c1)C(=O)N(Cc1ccncc1)C2=O,0.39
CCOc1ccccc1NC(=O)CCN(c1ccc(C)cc1)S(=O)(=O)c1ccccc1,0.67
CCOc1ccc(N(CC(=O)NCc2ccc(F)cc2)C(=O)c2snc(C(N)=O)c2N)cc1,2.2
CCOc1ccccc1NC(=O)Cc1cccs1,-0.21
CN1CCN(CCc2cn3ncc(C#N)c3nc2-c2ccc(F)cc2)CC1,-0.64

Two records drawn at random from those above, as already listed:
SMILES,Kir21 inh
CCOc1ccccc1NC(=O)Cc1cccs1,-0.21
CCOc1ccc(N(CC(=O)NCc2ccc(F)cc2)C(=O)c2snc(C(N)=O)c2N)cc1,2.2

Next part.
SMILES,Kir21 inh
O=C(CNC(=O)C12CC3CC(CC(C3)C1)C2)N1CCN(S(=O)(=O)c2cccs2)CC1,0.07
O=C(NCCC1=CCCCC1)C1CC(=O)N(C2CCCCC2)C1 (centres undefined),0.22
NNC(=S)NC1CCCCC1,-1
COc1ccc(-c2nc(CN3CCN(Cc4cccc(F)c4)CC3)c(C)o2)cc1,0.46
O=C(O)c1cc(O)ccc1-c1ccc(O)cc1,0.66
CCCCCCC1CCC(C(=O)NC(CCSC)C(=O)NC(C(=O)OC)C(C)C)CC1 (centres undefined),0.19
COC(=O)C(C)N(c1ccc(OC)cc1)S(C)(=O)=O (centres undefined),1.21
Cc1cccc(NC(=O)Nc2ccc(C)c(C)c2)n1,-0.26

(more compounds)
SMILES,Kir21 inh
COc1ccccc1C(=O)Nc1ccc2nc3n(c(=O)c2c1)CCCC3,0.86
COc1ccc(N(CC(=O)NC2CCCC2)S(=O)(=O)c2c(C)[nH]c(=O)[nH]c2=O)cc1,-0.1
CC(=O)c1ccc(NC(=O)CSc2nnc(-c3ccco3)o2)cc1,-1.01
CSc1cccc(NC(=O)C2CCN(S(C)(=O)=O)CC2)c1,-0.98
Cn1c(=O)cc(Nc2ccccc2)c2c(=O)n(-c3ccccc3)c(=O)n(-c3ccccc3)c21,0.78
CCn1ncc(Br)c1C(=O)Nc1c(C)nn(Cc2c(F)c(F)c(F)c(F)c2F)c1C,-0.72
O=C(O)CCCC(=O)Nc1ccc(Br)cc1C(=O)O,-1.19
COc1ccc(-n2c(C)cc(C(=O)Cn3nnc4ccccc4c3=O)c2C)cc1,-0.49

Shown field by field: 2 of the compounds above
> CSc1cccc(NC(=O)C2CCN(S(C)(=O)=O)CC2)c1
  Kir21 inh: -0.98
> COc1ccccc1C(=O)Nc1ccc2nc3n(c(=O)c2c1)CCCC3
  Kir21 inh: 0.86

Additional compounds.
SMILES,Kir21 inh
CCNc1nnc(-c2ccc(C)cc2)o1,0.06
COc1nc(C)ccc1-c1noc(-c2ccncc2)n1,1.55
COc1ccc(/C=N/N2CCOCC2)cc1Cn1cc([N+](=O)[O-])cn1,-0.67
COc1ccc(NC(=O)c2cnc(C)cn2)cc1-n1cnnn1,0.55
O=C(Nc1cccc(F)c1)c1cc(S(=O)(=O)NCCC2=CCCCC2)ccc1F,-0.77
COc1cc(OC)c(C(=O)/C=C/c2ccccc2)c(O)c1O,-2.2
CCOC(=O)COc1ccc2c(c1)C(=O)CC(C)(c1cccnc1)O2 (centres undefined),-2.21
CCc1ccc(Nc2nnc(SCC(=O)Nc3ccc(C(=O)O)cc3)s2)cc1,-0.97

The list goes on:
SMILES	Kir21 inh
O=C(CSc1nc2c(c(=O)n1-c1ccccc1)SCC2)NCC1CCCO1 (centres undefined)	-0.39
CCOC(=O)C1CCN(CC(=O)Nc2ccc(OC)c(Cl)c2)CC1	0.4
O=C(Nc1ccccc1)N(C1=NCCC1)c1ccc(OC(F)F)cc1	0.92
CCN(CC)CCN(C)C(=O)c1ccc(OC2CCN(C(=O)C3CC3)CC2)cc1	0.04
Cc1cccc(CCNC(=O)CCS(=O)(=O)c2cc3c(cc2Cl)NC(=O)CO3)c1	0.46
CCOc1ccc(OCCCC(=O)NC2=NCCS2)cc1	1.71
O=C(O)/C=C/C(=O)OC1CC2CCC1C2 (centres undefined)	-0.31
CCN(C(=O)COC(=O)C1CCN(S(=O)(=O)c2c(Cl)cccc2Cl)CC1)C1CCCCC1	-0.43

Following part.
SMILES	Kir21 inh
Cc1cc(S(=O)(=O)N(Cc2cccs2)Cc2ccccc2F)ccc1-n1cnnn1	-0.49
C=C(C)C1CC=C(C)/C(=N/NC(=O)COc2ccc(C)cc2)C1 (centres undefined)	1.5
CC(CSc1nc2ccccc2s1)Cn1c(N2CCCC2)nc2c1c(=O)[nH]c(=O)n2C (centres undefined)	-0.23
CCn1c(SCC(=O)N2CCN(c3ccccc3F)CC2)nnc1-c1ccoc1C	-0.05
CCn1cc(S(=O)(=O)CC(=O)Nc2ccc3c(c2)OCO3)c2ccccc21	1.53
C[N+]1(CC(=O)OCCCc2ccccc2)CCOCC1	-1.02
COC(=O)c1ccccc1NC(=O)CSc1nncn1-c1ccccn1	0.63
COCCN(CC1CCCN(C2Cc3ccccc3C2)C1)C(=O)c1ccc(C(C)=O)cc1 (centres undefined)	0.49

(cont.)
SMILES	Kir21 inh
CCN(CC)C(=O)c1sc(NC(=O)c2c(OC)cccc2OC)c(C#N)c1C	-0.25
OCc1n[nH]c(CO)n1	2.31
Clc1cc(Br)ccc1OCCn1ccnc1	-2.19
COc1ccc(OC)c(-c2cc(C(=O)Nc3sc4c(c3C#N)CCC(C)C4)c3ccccc3n2)c1 (centres undefined)	0.1
COCCN=C1Sc2nc3cc(C)c(C)cc3cc2CN1Cc1cccs1	0.05
CCOc1ccc(C(=O)NC2CCN(C(=O)Nc3ccc(F)cc3)CC2)cc1	1.24
O=C(Nc1ccc(F)cc1)NC1CCN(Cc2c(F)cccc2Cl)CC1	0.24
CC(=O)Nc1ccc(Oc2cnc3ccccc3n2)cc1	0.18

Going on with the list:
SMILES	Kir21 inh
COC(=O)c1ccc(N=C2S/C(=C\c3cc(C)n(-c4cccnc4)c3C)C(=O)N2C)cc1	0.75
c1ccc(C(c2nnnn2C2CCCC2)N2CCN(c3nc4ccccc4s3)CC2)cc1 (centres undefined)	-0.31
COc1cccc(-c2noc(-c3ccc4c(c3)OCO4)n2)c1	0.49
Cc1cc(C)c2c(c1)SC1=NC(c3ccccc3)(C(F)(F)F)NC(=O)N12 (centres undefined)	2.54
CC(C)COP(=O)(c1ccc(N(C)C)cc1)C(O)c1ccncc1 (centres undefined)	0.92
O=C(NC1CC1)C1=C[C@@H](c2csc3ccccc23)C[C@@H](OCCCCO)O1	-1.81
C=CCn1c(SCC(=O)Nc2ncc(Cc3ccc(Br)cc3)s2)nnc1-c1ccncc1	0.01
Cc1cc(C(F)F)nn1CC(=O)N1CCSCC1	0.2

The listing continues:
SMILES	Kir21 inh
CCCC(=O)Nc1nnc(SCC(=O)N2CCN(c3ccccc3)CC2)s1	-0.17
CC(=O)c1ccc(NC(=O)c2noc3c2CCCCC3)cc1	0.44
Cc1cc(C(=O)Nc2cccc(C)c2C)n(-c2ccccc2)n1	-2.74
Cn1nnc(NC(=O)C(c2ccccc2)c2ccccc2)n1	0.28
O=C(COC(=O)/C=C/c1ccccc1)Nc1cccnc1Cl	-1.21
CC(=O)c1ccc[n+](CC(=O)NC(C)c2ccccc2)c1 (centres undefined)	-2.18
COc1ccc(/C=C(/NC(=O)c2ccco2)C(=O)N2CCCCC2)cc1	-0.64
NC(=NC1CCCCC1)c1ccc([N+](=O)[O-])cc1	-1.01

(listing goes on)
SMILES	Kir21 inh
Cc1cc(CNC(=O)c2cc(COc3ccc(F)c(F)c3)on2)nn1C	0.71
COc1ccc(NC(=O)C2CCCN2S(=O)(=O)c2cccc3cccnc23)c(OC)c1 (centres undefined)	-0.53
Cc1cc(N)n(-c2ccc(Cl)cc2)n1	0.52
Cn1c(=O)c(=O)n(C)c2cc(S(=O)(=O)Nc3ccc4c(c3)OCCO4)ccc21	0.59
CC1(c2ccc(Cl)cc2)NC(=O)N(CC(=O)NCc2cccs2)C1=O (centres undefined)	-0.26
O=C(O)CCCNS(=O)(=O)c1cccs1	1.55
O=C(c1cccc([N+](=O)[O-])c1)c1ccc2c(c1)OCCOCCOCCOCCO2	-0.88
Cc1cc(Cl)c2oc(C(=O)NC3CCC(O)CC3)c(C)c2c1 (centres undefined)	-0.01

Following part.
SMILES	Kir21 inh
O=c1c(C/C=C/c2ccccc2)c(O)ccn1Cc1cccc(Cl)c1	1.92
N#CC(C#N)=CN=c1ccn(Cc2ccc(Cl)cc2Cl)cc1	0.48
O=C(CN(C1CCCCC1)S(=O)(=O)c1ccc(F)cc1)Nc1ccc2c(c1)OCO2	-0.15
Cc1ccc(CNC(=O)C2CCCN(c3nn4c(=O)cc(C)nc4s3)C2)cc1 (centres undefined)	-0.09
CCN(CC)C(=O)C12C(=O)Oc3ccccc3C1C2(C)C(=O)c1ccc(F)cc1 (centres undefined)	-0.23
CCOC(=O)C1CCCN(C(=O)C2CCN(S(=O)(=O)c3cccs3)CC2)C1 (centres undefined)	0.5
COCCNC(=O)CCn1nc(-c2ccc(Cl)cc2)c2ccccc2c1=O	0
COCCNC(=S)N(CCc1c(C)[nH]c2ccccc12)Cc1cccnc1	1.18

Next records follow.
SMILES	Kir21 inh
CN(c1ccccc1)c1nc(N)c([N+](=O)[O-])c(NCc2ccccc2)n1	-0.51
CC(NC(=O)c1cc2cc([N+](=O)[O-])ccc2oc1=O)C1CCCO1 (centres undefined)	1.88
O=C1CCCN1CCCNC(=S)Nc1cccc2ccccc12	1.27
O=C(Cc1ccccc1)NCCc1c[nH]c2ccccc12	0.63
Cc1c(OCC(=O)NC(Cc2ccc(Cl)cc2)C(=O)O)ccc2c3c(c(=O)oc12)CCCC3 (centres undefined)	-0.36
O=C(CCC(=O)Nc1ccc(F)cc1)N/N=C/c1cccs1	0.67
CCS(=O)(=O)N1CCC(C(=O)NC2CCCCC2)CC1	1.85
